Arbovirus inh = arbovirus infection inhibition; arbovirus infection cell-based antiviral screen; inhibition, % at 10 µM; 200,000 tested, 0.37% active;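 active means inhibition from about 30%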;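 further: bluetongue infection of BSR cells; cell survival read as ATP light after 72 h; 0% = infected wells without compound and 100% = uninfected wells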
RecA intein inh = blocks M. tuberculosis RecA intein splicing; cell-free RecA intein splicing, fluorescence; 290,000 tested, 0.75% active; AID 2221; P9WHJ3; inhibition, %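 (about 9 µM by stock and volumes)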; in the data active means inhibition above about 30%;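 further: 0% = vehicle wells and 100% = reference inhibitor control wells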
Target sequence (P9WHJ3 whole entry, looked up): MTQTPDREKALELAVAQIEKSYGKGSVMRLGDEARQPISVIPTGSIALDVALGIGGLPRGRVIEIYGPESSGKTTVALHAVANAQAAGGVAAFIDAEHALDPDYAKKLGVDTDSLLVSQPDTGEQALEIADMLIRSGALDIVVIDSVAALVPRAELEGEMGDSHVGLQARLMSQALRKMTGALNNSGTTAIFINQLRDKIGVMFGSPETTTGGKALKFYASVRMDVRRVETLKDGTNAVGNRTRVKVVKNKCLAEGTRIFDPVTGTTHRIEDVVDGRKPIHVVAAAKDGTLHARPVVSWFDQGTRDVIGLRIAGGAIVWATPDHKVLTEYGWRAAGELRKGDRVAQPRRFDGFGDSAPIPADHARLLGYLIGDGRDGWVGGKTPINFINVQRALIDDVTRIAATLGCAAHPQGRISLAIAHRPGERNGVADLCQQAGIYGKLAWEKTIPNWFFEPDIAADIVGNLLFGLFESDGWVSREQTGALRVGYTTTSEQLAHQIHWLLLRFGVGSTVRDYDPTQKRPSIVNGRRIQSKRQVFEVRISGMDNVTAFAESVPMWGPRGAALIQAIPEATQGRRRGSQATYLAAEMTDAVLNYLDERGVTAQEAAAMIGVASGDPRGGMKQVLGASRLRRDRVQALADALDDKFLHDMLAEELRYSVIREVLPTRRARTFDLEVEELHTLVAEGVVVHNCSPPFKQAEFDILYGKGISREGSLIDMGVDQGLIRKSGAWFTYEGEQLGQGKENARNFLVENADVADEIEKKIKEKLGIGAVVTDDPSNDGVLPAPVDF
Mtb growth = M. tuberculosis H37Rv growth inhibitors, H37Rv strain (AID 1626) | one-dose inhibition, % at 10 µM; IC50 in µM for titrated hits | 220,000 tested, 0.95% active | M. tuberculosis H37Rv growth inhibition; higher % means a stronger effect;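 active means confirmed in a dose series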;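 further: bacteria incubated seven days before Alamar blue readout; 0% = bacteria only wells and 100% = bacteria with antibiotic wells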
Mtb betalactam = beta-lactam sensitization of Mtb H37Rv; M. tuberculosis H37Rv growth with meropenem, percent inhibition; hits of this screen are not shown here; inhibition, % at 25 µM; 330,000 tested, 0.27% active; AID 434955;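 active means about 74% or more and at least 40 points above the plate without the antibiotic, then above 30% in a dose series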;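 further: growth measured after seven days incubation then overnight dye step; 0% = bacteria only wells and 100% = bacteria with antibiotic; twin plates without the antibiotic show which effects depend on it; some results filed as inactive read as strong as hits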
YopH inh = blocks Yersinia enterocolitica YopH tyrosine phosphatase | 140,000 tested, 0.16% active | inhibition, %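 (about 10 µM by stock and volumes)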 | fluorescence Ex485/Em525;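 active means inhibition of 50% or more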;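 further: controls were vehicle for no effect and minimum signal wells for full effect; inactives centre near -20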
Arbovirus inh repeat = recorded beside Arbovirus inh, whose call it bears; inhibition, %; measured here: 10K subset replicate screen; many hits read low in the repeat;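 first of two repeat runs on a subset; 0% = infected and 100% = uninfected wells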
* hit, by the source's call; . = no result given. The list is partial (hit frequency here may not be typical).

SMILES	Arbovirus inh	RecA intein inh	Mtb growth	Mtb betalactam	YopH inh	others
O=[N+]([O-])C(=C1SCCS1)C(=C(Cl)Cl)N1CCCCC1	-1.1	5.5	-1.6%	-4.5	.
CC1CN(C(=O)Nc2ccc3c(c2)OCCO3)CC(C)O1 (configuration not stated)	14.9	-1.9	0.5%	8.0	.
CC1(C)C(C=C(Cl)Cl)C1C(=O)Nc1ccc(S(=O)(=O)Nc2ncccn2)cc1 (configuration not stated)	.	2.5	.	2.5	.
CN(CCCC1CCCC1)C(=O)CC1C(=O)NCCN1Cc1ccc(F)cc1 (configuration not stated)	.	6.9	.	-26.0	.
COc1ccc(/C=C2\C(=O)NC(=O)N(Cc3ccccc3)C2=O)c(OC)c1OC	-2.7	0.9	-0.8%	2.3	.
COc1ccccc1CCNC(=O)/C(=C/c1cccnc1)NC(=O)c1ccccc1	7.7	-0.4	3.1%	5.5	1.9
CSc1sc(C#N)c2c1/C(=N\O)CCC2	.	.	-7.8%	2.1	.
Cc1cc(C)n(C(=O)c2ccc(NC(=O)CC(C)C)cc2)n1	-5.3	0.6	-0.3%	1.0	-20.3
O=C(Nc1cccc(C(F)(F)F)c1)c1ccc(Cn2cc(Br)cn2)o1	-26.6	10.7	-2.2%	14.4	-4.5
COc1cccc(-n2ccnc2SCC(=O)Nc2cc(OC)ccc2OC)c1	-0.3	3.3	4.9%	-0.7	-32.7
O=C(/C(=C/O)N=Nc1ccccc1)c1ccco1	-3.8	4.2	-2.0%	-3.8	.
O=C(Cc1ccc(F)cc1)NC(Cc1c[nH]c2ccccc12)C(=O)O (configuration not stated)	.	-2.6	.	-7.6	.
O=C(NCCN1CCOCC1)/C(=C/c1ccc(F)cc1)NC(=O)c1ccccc1	.	3.3	.	-1.8	.
O=C(NC(=S)Nc1ncccn1)c1ccc(F)cc1	.	0.6	.	-4.0	.
Cc1noc(C)c1COC(=O)CCCOc1ccc(Cl)cc1Cl	-1.4	7.5	6.2%	67.7	-30.9

Four compounds already listed, sorted by length of the SMILES, ascending.
SMILES	Arbovirus inh	RecA intein inh	Mtb growth	Mtb betalactam	YopH inh	others
O=[N+]([O-])C(=C1SCCS1)C(=C(Cl)Cl)N1CCCCC1	-1.1	5.5	-1.6%	-4.5	.
CN(CCCC1CCCC1)C(=O)CC1C(=O)NCCN1Cc1ccc(F)cc1 (configuration not stated)	.	6.9	.	-26.0	.
O=C(Nc1cccc(C(F)(F)F)c1)c1ccc(Cn2cc(Br)cn2)o1	-26.6	10.7	-2.2%	14.4	-4.5
COc1ccccc1CCNC(=O)/C(=C/c1cccnc1)NC(=O)c1ccccc1	7.7	-0.4	3.1%	5.5	1.9

Additional compounds
SMILES	Arbovirus inh	RecA intein inh	Mtb growth	Mtb betalactam	YopH inh	others
OCC1(CO)COC(CCc2ccccc2)=N1	.	0.6	.	-0.5	.
CSCCC(N=Cc1c(O)n(-c2ccc(Cl)cc2)c(=O)[nH]c1=O)C(=O)OC(C)(C)C (configuration not stated)	-0.6	-1.0	-17.4%	-15.0	-22.2
CCOc1nc(CC)nc(NC(=O)NS(=O)(=O)c2ccccc2Cl)n1	2.8	3.9	-2.0%	2.0	-38.5
CCn1c(O)c(N=NC(=O)c2ccc(CSc3nncn3C)cc2)c2ccccc21	-5.6	-1.6	25.9%	94.1	-14.9
O=C(CN1CCN(S(=O)(=O)c2ccc3ccccc3c2)CC1)N1CCc2ccccc2C1	5.5	7.3	8.9%	-4.1	-15.0
O=C(Nc1ccc(-c2nc3cccnc3s2)cc1)c1ccc(Br)o1	12.3	-1.5	4.5%	.	-21.4	Arbovirus inh repeat=-0.7
CCN1CCN(C(=O)c2cc(COc3ccc4ncccc4c3)on2)CC1	13.8	0.9	0.9%	-3.8	.
COc1ccc(-c2csc(N3C(=O)C4C5c6ccccc6C(c6ccccc65)[C@@H]4C3=O)n2)cc1 (some centres not stated)	0.8	0.5	3.9%	-1.6	-28.2
c1ccc(-c2nc(-c3nccc4ccccc34)oc2-c2ccccc2)cc1	.	-13.0	16.1%	27.9	.
Cc1ccc2cc(CCNC(=O)c3ccc(Br)o3)c(=O)[nH]c2c1	-6.5	1.5	.	-2.0	-38.6
CCOCCn1c(CN2CCc3ccccc3C2)nc2c1c(=O)n(C)c(=O)n2C	.	0.3	-3.7%	0.9	.
COc1ccc(-n2c(C)csc2=S)cc1	-1.1	-3.8	-4.2%	-0.4	-25.8
Cc1cnc(C(=O)NC2CC(C)(C)Cc3c2cnn3-c2cccc(F)c2)cn1 (configuration not stated)	.	0.1	.	4.3	.
C/C(=N\NC(=O)CNC(=O)c1cccs1)c1ccc(Cl)c(Cl)c1	.	4.1	.	4.4	.
Cc1ccccc1N1CC2=C(C1=O)C(c1ccccc1)NC(=O)N2C (configuration not stated)	.	-0.2	3.0%	-4.2	.
COC(=O)c1c(N2C(=O)Nc3ccccc3N2O)sc2c1CCCC2	2.1	1.7	-6.7%	-1.3	-38.0
CCOCCN1CCC(OC(C)=O)C(C)C1 (configuration not stated)	1.4	-6.3	-7.9%	-2.2	-36.2
CN1CCN(CC(=O)Nc2cc(N(C)C)nc3ccccc23)CC1	7.3	-1.0	-6.0%	-4.3	.
CNc1ccc(Cl)nn1	8.6	-0.3	-1.9%	-7.1	.
Cc1nn(CC(=O)NCc2ccc(OC(C)C)cc2)c(=O)c2cc(-c3ccccc3)nn12	.	0.0	.	7.0	.
O=C(Nc1ccc(CSc2ccccc2)cc1)c1ccco1	.	1.2	.	83.4	.
O=C(O)c1cccnc1SCc1cccc(Br)c1	.	-0.8	.	2.6	.
Cc1cc2c(cc1S(=O)(=O)CCC(=O)N(C)C1CCCCC1)OCC(=O)N2	.	0.0	.	2.7	.
CCOc1ccccc1NC(=O)CSc1ccccc1	-8.1	3.3	13.8%	-10.0	-26.4	Arbovirus inh repeat=-4.1
Cc1ccc2nc(NC(=O)CSc3nc(=O)n(CCCN(C)C)c4c3CCC4)sc2c1	.	7.1	.	-4.2	.
CS(=O)(=O)N1c2ccccc2[C@]2([C@@]34C[C@H]5C(=O)N[C@@H](Cc6ccccc6)C(=O)N5[C@@H]3N(S(C)(=O)=O)c3ccccc34)C[C@H]3C(=O)N[C@@H](Cc4ccccc4)C(=O)N3[C@H]12	.	2.1	-4.5%	-5.3	.
CC[C@@H](C(=O)n1nc(C)cc1C)[C@H](NS(=O)(=O)c1ccc(C)cc1)c1ccccc1	-26.6	-0.5	-5.6%	5.3	-9.1
Cc1ccccc1C(=O)c1c[nH]c(C(=O)NCCCn2ccnc2)c1	6.0	0.1	0.5%	-2.2	-38.3
CCCCNC(=O)NNC(=O)COc1cccc(C)c1C	2.7	-0.8	-4.0%	-0.8	-23.2
CCN(CC)c1ccc(N2C(=O)/C(=C\c3cccnc3)SC2=S)cc1	-7.7	0.1	-0.3%	2.1	-22.2
O=C(O)C1CC(=O)N(c2ccc(Br)cc2)C1 (configuration not stated)	2.2	3.4	-8.2%	-14.9	-19.6
COCCCn1c(SCc2nnc(-c3ccccc3)o2)nc2sc3c(c2c1=O)CCC3	-7.5	0.4	-3.7%	-11.6	-6.1
COCCn1nnnc1C(c1cccs1)N1CCN(c2ccccc2)CC1 (configuration not stated)	-1.6	1.9	-3.0%	-0.8	-36.5
Cc1cc2cc(CNC(=O)c3cccc([N+](=O)[O-])c3)ccc2[nH]1	-12.9	-1.1	23.7%	1.0	-26.5
Cc1ccc(-n2nnnc2SCn2nnc3ccccc3c2=O)cc1	11.3	.	0.6%	-8.1	11.3
CCn1c(CN2CCOCC2)nnc1SCC(=O)Nc1ccc(C(C)=O)cc1	.	-2.5	.	-6.2	.
CC1(C)Cc2nc3sc(C(N)=O)c(N)c3cc2CO1	.	-1.9	-4.8%	-0.7	.
COc1ccc(C2C(=O)N(C3CCCCC3)CC(=O)N2CCc2ccccc2)cc1OC (configuration not stated)	11.9	0.9	-6.9%	-2.1	-32.3
Cc1ccc(/C=C2\C(=O)NC(=S)N(c3ccccc3F)C2=O)s1	-33.0	.	-4.5%	3.6	1.2
CC(C)(C)NC(=O)C(c1ccncc1)N(CC1CCCO1)C(=O)Cn1nnc(-c2ccc(F)cc2)n1 (configuration not stated)	3.1	-1.0	-3.7%	3.7	.
Cc1ccn2cc(CCNC(=O)CC(C)(C)C)nc2c1	0.6	-2.0	-9.0%	-20.5	-36.4
CCCCOc1ccc(C(=O)NCc2ccncc2)cc1	9.5	.	-0.7%	9.4	7.5
CCCc1nc2oc3c(OC)ncnc3c2c2c1COC(C)(C)C2	-0.4	2.4	-6.2%	0.7	-2.6
Cc1ccc(OCCn2ccnc2)c(C)c1	.	-0.9	.	7.6	.
CC(=O)OC(C(=O)NCS(=O)(=O)c1ccc(C)cc1)c1cccnc1 (configuration not stated)	11.5	0.0	1.4%	-7.4	-9.3
CCN(Cc1ccccc1OC)CC1CCCN(CCc2cccc(OC)c2)C1 (configuration not stated)	.	-0.9	.	-1.1	.
COc1ccc(N2CC(C(=O)N[C@@H](CC(C)C)C(=O)NC3CCCC3)CC2=O)cc1 (some centres not stated)	.	-2.8	.	-1.6	.
CCOC(=O)c1ccc(NC(=O)c2c(NCc3ccccc3)[nH]c(=O)[nH]c2=O)cc1	.	1.3	-4.8%	20.1	.
CCOC(=O)c1c(NC(=O)CCC(=O)O)sc2c1CCCCC2	2.9	-6.0	-12.6%	6.1	-30.8
CCOC(=O)c1ccc(NC(=O)CCc2nc(-c3ccc(C)cc3)no2)cc1	14.3	2.2	1.36µM*	99.6	12.6
Cc1sc(NC(=O)/C=C/c2ccc3c(c2)OCO3)nc1-c1ccccc1	-20.9	0.6	13.1%	30.7	-25.6
CN(c1ccc(C(=O)Nc2ccc3c(c2)OCO3)cc1)S(C)(=O)=O	.	0.9	.	-4.1	.
COc1ccc(CCN2CC(C(=O)NCCCn3nc(C)cc3C)CCC2=O)cc1 (configuration not stated)	.	-1.3	.	12.8	.
CC(C)[C@H](NC(=O)N1CCn2c1nc1ccccc12)C(=O)N[C@H](Cc1ccccc1)C(=O)O	.	0.3	.	-3.2	.
CC(C)c1ccc(N(C(=O)C(F)(F)F)C(C(=O)NC2CCCCC2)c2ccncc2)cc1 (configuration not stated)	6.7	-2.1	-10.2%	0.9	-40.4
O=C(c1ccc2c(c1)OCO2)N1CCN(c2ccccc2F)CC1	-3.5	0.9	4.7%	-5.9	-1.1
COC(=O)c1cccc(NC(=O)Cn2cnc3ccccc3c2=O)c1	9.1	0.6	-4.1%	-1.9	3.2
CC(=O)NC(=S)Nc1cc(C(F)(F)F)ccc1N1CCOCC1	9.0	-4.3	0.5%	5.9	-26.5
COc1cccc(/C=C/C(=O)c2ccc(NS(=O)(=O)c3ccc(C)cc3)cc2)c1	-1.9	33.9*	.	8.9	-20.6
COc1ccc(/C=N/NC(=O)c2nnn(-c3nonc3N)c2CN(C)c2ccccc2)cc1	.	-0.1	.	4.7	.

By substructure: the compounds so far with bromine.
SMILES	Arbovirus inh	RecA intein inh	Mtb growth	Mtb betalactam	YopH inh	others
O=C(Nc1cccc(C(F)(F)F)c1)c1ccc(Cn2cc(Br)cn2)o1	-26.6	10.7	-2.2%	14.4	-4.5
O=C(Nc1ccc(-c2nc3cccnc3s2)cc1)c1ccc(Br)o1	12.3	-1.5	4.5%	.	-21.4	Arbovirus inh repeat=-0.7
Cc1ccc2cc(CCNC(=O)c3ccc(Br)o3)c(=O)[nH]c2c1	-6.5	1.5	.	-2.0	-38.6
O=C(O)c1cccnc1SCc1cccc(Br)c1	.	-0.8	.	2.6	.
O=C(O)C1CC(=O)N(c2ccc(Br)cc2)C1 (configuration not stated)	2.2	3.4	-8.2%	-14.9	-19.6

Following part:
SMILES	Arbovirus inh	RecA intein inh	Mtb growth	Mtb betalactam	YopH inh	others
O=C(CNC(=O)c1ccncc1)N/N=C/c1ccc(Br)cc1	.	-4.3	-8.5%	-4.7	.
Cc1ccc(C2C(C#N)=C(N)Oc3n[nH]c(C)c32)cc1 (configuration not stated)	-2.2	77.4*	-5.8%	0.8	-11.3
C/C(=N\NC(=O)c1cccc(S(=O)(=O)N2CCOCC2)c1)c1ccc(OC(F)F)cc1	.	2.7	.	-15.8	.
Cc1ccccc1N1CCN(Cc2ccc3c(c2)OCO3)CC1	.	-1.6	.	51.9	.
CCn1c(SCC(=O)c2ccc3c(c2)Cc2ccccc2-3)nnc1-c1ccc(N)cc1	-8.3	0.3	14.1%	4.0	-33.6
Nc1nonc1C(=Nc1ccccc1)NO	-0.3	0.7	-6.2%	-8.0	-47.0
COc1ccccc1CNC(=O)c1cc(C(=O)CC(C)C)c[nH]1	.	0.2	.	-0.2	.
CC(C)CC(=O)Nc1ccnn1C1CCN(C(=O)c2ccccc2F)CC1	.	-3.0	.	-2.7	.
Nc1nc2ccc([N+](=O)[O-])c(N)c2s1	-3.7	-2.1	-0.2%	2.1	-36.7
CCOc1cc(C(=S)N2CCN(C)CC2)ccc1OCC(=O)N1CCOCC1	3.6	-0.9	-4.8%	1.5	0.8
CN1CCCN(Cc2nc(-c3cccc(C(F)(F)F)c3)no2)CC1	-7.6	-1.0	7.7%	-6.4	.
COC(=O)c1cc(NC(=O)c2ccoc2C)cc(C(=O)OC)c1	-1.3	-1.5	-8.7%	-4.8	-2.0
